Bioassay records (PubChem BioAssay)
Env fusion inh: inhibitors of HIV-1 Env-driven cell-cell fusion, primary screen, HeLa-JRFL effector, CEM21 target cells, luciferase | inhibition, % at 12.3 µM | actives 1.1% (n = 360,000) | AID 651610, 2012;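 active = mean replicate inhibition score of at least 50 and every replicate individually at or above 50; inconclusive = only one of the two criteria met; inactive = mean below 50 and not all replicates reaching 50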;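 also: 0% = plate neutral controls and 100% = maraviroc near 300 nM; one replicate is shown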
Yeast UUG start: modulators of yeast start codon fidelity, primary screen, whole organism, S. cerevisiae, single point, plate reader; S. cerevisiae UUG-firefly luciferase reporter, luminescence/redox ratio; activity score, % at 18.7 µM; actives 0.13% (n = 350,000);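 active = replicate mean at a twofold rise or more, about +100% in these data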;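 also: firefly luciferase made from a UUG start codon reports start codon fidelity; reporter light over untreated wells divided by growth signal over untreated wells; some hits fall short of that in this replicate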
Numbers without * were called inactive; ? = inconclusive; [ ] = remark or other dose. This is a subset; rates above refer to the full screens.

Compound,Env fusion inh,Yeast UUG start
C[C@@H]1CN([C@H](C)CO)C(=O)c2cc(NC(=O)CCCN(C)C)ccc2O[C@@H]1CN(C)C(=O)Nc1ccc(F)cc1,-8[16.7 µM],17
C[C@@H]1CN([C@@H](C)CO)C(=O)c2cccc(NS(=O)(=O)c3ccc(Cl)cc3)c2O[C@@H]1CN(C)CC1CCCCC1,-15[16.7 µM],2
CS(=O)(=O)Nc1ccc2c(c1)[C@H]1C[C@@H](CC(=O)NC3CCCCC3)O[C@@H](CO)[C@H]1O2,16[16.7 µM],-19
C[C@@H]1CCCCO[C@H](CN(C)S(=O)(=O)c2ccc(F)cc2)[C@H](C)CN([C@@H](C)CO)C(=O)c2cc(NC(=O)c3ccncc3)ccc2O1,-4[16.7 µM],21
C[C@H](CO)N1C[C@H](C)[C@H](CN(C)Cc2cccnc2)Oc2ncc(-c3ccccc3)cc2C1=O,19[16.7 µM],-4
COc1ccc(CNC(=O)C[C@@H]2C[C@H]3c4cc(NC(=O)CC5CC5)ccc4O[C@H]3[C@H](CO)O2)cc1,18[16.7 µM],5
C[C@@H]1CCCCO[C@H](CN(C)C(=O)Nc2cccc3ccccc23)[C@H](C)CN([C@H](C)CO)C(=O)c2cc(NS(C)(=O)=O)ccc2O1,?,23
CCCC#Cc1cnc2c(c1)C(=O)N([C@H](C)CO)C[C@H](C)[C@@H](CN(C)C(=O)CN1CCOCC1)O2,12[16.7 µM],-12
Cc1noc(C)c1S(=O)(=O)N(C)C[C@H]1OCCCC[C@@H](C)Oc2ccc(NC(=O)Nc3ccccc3)cc2C(=O)N([C@@H](C)CO)C[C@H]1C,-63[16.7 µM],-8
C[C@H](CO)N1C[C@H](C)[C@@H](CN(C)S(=O)(=O)c2ccccc2)OCCCC[C@H](C)Oc2ccc(NC(=O)Nc3ccc(C(F)(F)F)cc3)cc2C1=O,-1[16.7 µM],-9
C/C=C/c1ccc2c(c1)O[C@H](CN(C)Cc1ccc(F)cc1)[C@@H](C)CN([C@@H](C)CO)S2(=O)=O,-4[16.7 µM],0
C[C@H]1CN([C@@H](C)CO)C(=O)c2cc(-c3cccnc3)cnc2O[C@H]1CN(C)C(=O)Nc1ccc(F)cc1,3[16.7 µM],-4
O=C(Cc1ccccn1)NCC[C@H]1CC[C@@H](NC(=O)Nc2ccc(F)cc2)[C@H](CO)O1,-14[16.7 µM],-2
C[C@@H]1CN([C@H](C)CO)C(=O)Cc2cc(NS(=O)(=O)c3ccc(F)cc3)ccc2O[C@@H]1CN(C)Cc1ccc(Oc2ccccc2)cc1,6[16.7 µM],12
C[C@@H]1CN([C@H](C)CO)C(=O)c2cccc(NS(=O)(=O)c3ccc(F)cc3)c2O[C@H]1CN(C)C(=O)NC1CCCCC1,6[16.7 µM],1
CC(C)NC(=O)N(C)C[C@@H]1OCCCC[C@@H](C)Oc2ccc(NS(=O)(=O)c3ccccc3)cc2C(=O)N([C@H](C)CO)C[C@H]1C,-90[16.7 µM],-4
C[C@H]1CN([C@@H](C)CO)C(=O)c2cc(C3=CCCC3)cnc2O[C@H]1CN(C)C(=O)Nc1cccc(F)c1,-1[16.7 µM],-4
CCS(=O)(=O)N[C@@H]1CC[C@@H](CC(=O)NCc2ccc(Cl)cc2)O[C@@H]1CO,-8[16.7 µM],-7
C[C@@H]1CN([C@H](C)CO)C(=O)c2cc(NC(=O)Nc3ccc(F)cc3)ccc2O[C@@H](C)CCCCO[C@H]1CN(C)S(=O)(=O)c1ccc(F)cc1,22[16.7 µM],-10
COc1cccc(NC(=O)N[C@H]2C=C[C@@H](CC(=O)N3CCN(C)CC3)O[C@H]2CO)c1,-21[16.7 µM],6
COc1ccccc1S(=O)(=O)N[C@@H]1CC[C@H](CCNC(=O)C2CCC2)O[C@@H]1CO,3[16.7 µM],-20
CNC(=O)C[C@@H]1CC[C@H]2[C@H](COc3ccc(NC(=O)Nc4cccc(Cl)c4)cc3C(=O)N2C)O1,6[16.7 µM],10
C[C@@H]1CCCCO[C@@H](CN(C)S(=O)(=O)c2ccc(Cl)cc2)[C@@H](C)CN([C@@H](C)CO)C(=O)c2cc(NC(=O)Nc3cccc4ccccc34)ccc2O1,-16[16.7 µM],13
Cc1ccc(S(=O)(=O)Nc2ccc3c(c2)C(=O)N([C@@H](C)CO)C[C@H](C)[C@@H](CN(C)C(=O)Nc2c(C)noc2C)OCCCC[C@@H](C)O3)cc1,-59[16.7 µM],-3
C[C@H](CO)N1C[C@H](C)[C@H](CN(C)C(=O)c2ccncc2)OCCCC[C@H](C)Oc2ccc(NS(=O)(=O)c3cn(C)cn3)cc2C1=O,1[16.7 µM],-7
C[C@@H]1CN([C@H](C)CO)C(=O)c2cc(-c3ccc(F)cc3)cnc2O[C@@H]1CN(C)Cc1ccc(C(=O)O)cc1,-7[16.7 µM],-12
COCC#Cc1ccc2c(c1)O[C@@H](CN(C)C(=O)C1CCC1)[C@H](C)CN([C@@H](C)CO)S2(=O)=O,-77[16.7 µM],-4
C[C@@H]1CCCCO[C@H](CN(C)C(=O)Nc2ccc(C(F)(F)F)cc2)[C@H](C)CN([C@H](C)CO)C(=O)c2cc(NC(=O)c3ccccc3)ccc2O1,?,-1
CCCC#Cc1ccc([C@H]2[C@@H](CO)N(C(=O)C3CCOCC3)[C@H]2C#N)cc1,-23[16.7 µM],21
Cc1ccc(S(=O)(=O)N(C)C[C@H]2Oc3ccc(NC(=O)Nc4c(C)noc4C)cc3C(=O)N([C@H](C)CO)C[C@@H]2C)cc1,3[16.7 µM],-2

Reformatted with two lines to a compound: entries from further up
The line under a structure holds: Env fusion inh	Yeast UUG start
C[C@@H]1CCCCO[C@H](CN(C)S(=O)(=O)c2ccc(F)cc2)[C@H](C)CN([C@@H](C)CO)C(=O)c2cc(NC(=O)c3ccncc3)ccc2O1
  -4[16.7 µM]	21
C[C@H](CO)N1C[C@H](C)[C@H](CN(C)Cc2cccnc2)Oc2ncc(-c3ccccc3)cc2C1=O
  19[16.7 µM]	-4
COc1ccc(CNC(=O)C[C@@H]2C[C@H]3c4cc(NC(=O)CC5CC5)ccc4O[C@H]3[C@H](CO)O2)cc1
  18[16.7 µM]	5
C[C@@H]1CCCCO[C@H](CN(C)C(=O)Nc2cccc3ccccc23)[C@H](C)CN([C@H](C)CO)C(=O)c2cc(NS(C)(=O)=O)ccc2O1
  ?	23
CCCC#Cc1cnc2c(c1)C(=O)N([C@H](C)CO)C[C@H](C)[C@@H](CN(C)C(=O)CN1CCOCC1)O2
  12[16.7 µM]	-12
Cc1noc(C)c1S(=O)(=O)N(C)C[C@H]1OCCCC[C@@H](C)Oc2ccc(NC(=O)Nc3ccccc3)cc2C(=O)N([C@@H](C)CO)C[C@H]1C
  -63[16.7 µM]	-8
C[C@H](CO)N1C[C@H](C)[C@@H](CN(C)S(=O)(=O)c2ccccc2)OCCCC[C@H](C)Oc2ccc(NC(=O)Nc3ccc(C(F)(F)F)cc3)cc2C1=O
  -1[16.7 µM]	-9

Carrying on:
Compound,Env fusion inh,Yeast UUG start
C[C@H](CO)N1C[C@H](C)[C@@H](CN(C)C(=O)CN(C)C)Oc2cc(-c3ccncc3)ccc2S1(=O)=O,-12[16.7 µM],-8
Cc1noc(C)c1S(=O)(=O)Nc1ccc2c(c1)C(=O)N([C@H](C)CO)C[C@@H](C)[C@@H](CN(C)CC1CC1)O2,10[16.7 µM],6
O=C(O)C[C@H]1CC[C@@H](NC(=O)Nc2ccccc2)[C@H](CO)O1,-11[16.7 µM],-11
Cc1noc(C)c1NC(=O)N(C)C[C@H]1Oc2ccc(NC(=O)C3CCCCC3)cc2C(=O)N([C@H](C)CO)C[C@H]1C,1[16.7 µM],-13
COc1ccc(CN(C)C[C@H]2Oc3ccc(NC(=O)C4CCCCC4)cc3C(=O)N([C@H](C)CO)C[C@@H]2C)cc1,9[16.7 µM],8
COc1ccc(S(=O)(=O)Nc2ccc3c(c2)C(=O)N([C@@H](C)CO)C[C@@H](C)[C@@H](CN(C)C(=O)c2ccncc2)OCCCC[C@H](C)O3)cc1,-5[16.7 µM],6
CN(C)CC(=O)N[C@@H]1CC[C@@H](CCNC(=O)Nc2ccc(Cl)cc2)O[C@H]1CO,6[16.7 µM],32
C[C@H](CO)N1C[C@H](C)[C@H](CN(C)C(=O)Nc2ccc(F)cc2)Oc2ccc(NC(=O)C3CCCCC3)cc2C1=O,20[16.7 µM],7
C[C@@H]1CCCCO[C@H](CN(C)S(C)(=O)=O)[C@@H](C)CN([C@H](C)CO)C(=O)c2cc(NC(=O)Nc3ccc4c(c3)OCO4)ccc2O1,3[16.7 µM],8
COc1ccc(S(=O)(=O)Nc2ccc3c(c2)C(=O)N([C@@H](C)CO)C[C@H](C)[C@@H](CN(C)C(=O)Nc2ccccc2)O3)cc1,11[16.7 µM],-57
N#C[C@@H]1[C@H](c2ccccc2)[C@@H](CO)N1C(=O)Cc1ccccn1,-2[16.7 µM],5
CNC[C@@H]1OCCCC[C@H](C)Oc2ccc(NC(=O)Nc3ccc(OC)cc3)cc2C(=O)N([C@@H](C)CO)C[C@@H]1C,9[16.7 µM],13
O=C(C[C@@H]1C=C[C@H](NC(=O)Cc2ccccn2)[C@H](CO)O1)NCCCN1CCOCC1,10[16.7 µM],0
C[C@@H]1CN([C@@H](C)CO)C(=O)c2cccc(NC(=O)Nc3ccc(C(F)(F)F)cc3)c2O[C@@H]1CN(C)C(=O)Nc1cccc2ccccc12,18[16.7 µM],0
C[C@H](CO)N1C[C@H](C)[C@@H](CN(C)C(=O)Nc2cccc3ccccc23)OCCCC[C@H](C)Oc2ccc(NS(=O)(=O)c3ccc(F)cc3)cc2C1=O,33[16.7 µM],2
COc1ccc(NC(=O)Nc2ccc3c(c2)C(=O)N([C@H](C)CO)C[C@H](C)[C@H](CN(C)C(=O)NC(C)C)OCCCC[C@@H](C)O3)cc1,8[16.7 µM],15
C[C@@H]1CN([C@H](C)CO)C(=O)c2cc(NS(C)(=O)=O)ccc2O[C@@H](C)CCCCO[C@H]1CN(C)Cc1ccc(Cl)c(Cl)c1,19[16.7 µM],4
C[C@H](NC(=O)C[C@H]1C=C[C@@H](NS(=O)(=O)c2cccc(F)c2)[C@H](CO)O1)c1ccccc1,15[16.7 µM],-4
C[C@@H]1CN([C@H](C)CO)C(=O)c2cc(NC(=O)Nc3ccc(F)cc3)ccc2O[C@@H](C)CCCCO[C@H]1CN(C)Cc1ccc2c(c1)OCO2,20[16.7 µM],14
C[C@@H]1CN([C@@H](C)CO)C(=O)c2cccc(NC(=O)Nc3ccc(F)cc3)c2O[C@H]1CN(C)C(=O)Nc1ccc(F)cc1,10[16.7 µM],0
Cc1noc(C)c1NC(=O)N(C)C[C@H]1OCCCC[C@@H](C)Oc2ccc(NC(=O)Nc3ccc(C(F)(F)F)cc3)cc2C(=O)N([C@@H](C)CO)C[C@H]1C,7[16.7 µM],-13
COc1cccc(S(=O)(=O)N[C@@H]2CC[C@@H](CC(=O)NC3Cc4ccccc4C3)O[C@H]2CO)c1,-3[16.7 µM],-12
CN(C)C(=O)C[C@H]1C=C[C@@H](NC(=O)C2CC2)[C@@H](CO)O1,-1[16.7 µM],4
C[C@@H]1CCCCO[C@@H](CN(C)Cc2ccccc2)[C@H](C)CN([C@H](C)CO)C(=O)c2cc(NS(=O)(=O)c3cccs3)ccc2O1,-132[16.7 µM],-12
COc1ccccc1-c1cnc2c(c1)C(=O)N([C@@H](C)CO)C[C@H](C)[C@@H](CN(C)Cc1cccnc1)O2,14[16.7 µM],-12
C[C@@H]1CN([C@@H](C)CO)C(=O)c2cc(NC(=O)C3CCCCC3)ccc2O[C@H]1CN(C)S(=O)(=O)c1ccccc1,25[16.7 µM],14
C[C@@H]1CN([C@H](C)CO)S(=O)(=O)c2ccc(C#Cc3ccccn3)cc2O[C@H]1CN(C)Cc1ccccc1,3[16.7 µM],3
C[C@@H]1CN([C@H](C)CO)C(=O)c2cc(-c3ccc(F)cc3)cnc2O[C@H]1CN(C)Cc1ccc(C(=O)O)cc1,-14[16.7 µM],-16
COc1cccc(S(=O)(=O)N[C@H]2CC[C@@H](CCNC(=O)Nc3cc(F)ccc3F)O[C@H]2CO)c1,13[16.7 µM],5
C[C@H](CO)N1C[C@H](C)[C@H](CN(C)C)Oc2ncc(-c3ccccc3F)cc2C1=O,-10[16.7 µM],-9

Going on with the list:
| mol | Env fusion inh | Yeast UUG start |
| --- | --- | --- |
| CCCC(=O)Nc1ccc2c(c1)C(=O)N(C)[C@H]1CC[C@H](CC(=O)NCC3CCCCC3)O[C@H]1CO2 | -21[16.7 µM] | 7 |
| CO[C@@H]1CN(C)C(=O)c2cc(NC(=O)c3cnccn3)ccc2OC[C@H](C)NC[C@H]1C | -9[16.7 µM] | -10 |
| O=S(=O)(NCC[C@H]1CC[C@@H](NS(=O)(=O)c2ccccc2Cl)[C@@H](CO)O1)c1ccc(F)cc1 | 8[16.7 µM] | -3 |
| C[C@@H]1CN([C@@H](C)CO)C(=O)c2cc(-c3ccc(C#N)cc3)cnc2O[C@@H]1CN(C)C(=O)c1cccnc1 | -6[16.7 µM] | -7 |
| C[C@@H]1CCCCO[C@H](CN(C)Cc2ccccc2)[C@H](C)CN([C@H](C)CO)C(=O)c2cc(NS(=O)(=O)c3cccs3)ccc2O1 | -84[16.7 µM] | 16 |
| Cn1cnc(S(=O)(=O)N[C@H]2C=C[C@H](CC(=O)Nc3ccc(-c4ccccc4)cc3)O[C@H]2CO)c1 | -17[16.7 µM] | -2 |
| C[C@H](CO)N1C[C@H](C)[C@@H](CN(C)S(=O)(=O)c2ccc(Cl)cc2)Oc2ccc(NC(=O)Cc3cn(C)c4ccccc34)cc2C1=O | -6[16.7 µM] | -8 |
| C[C@H](O)C#Cc1ccc2c(c1)O[C@H](CN(C)Cc1cccnc1)[C@H](C)CN([C@@H](C)CO)S2(=O)=O | -28[16.7 µM] | 6 |
